HCMV NEC inh: inhibitors of HCMV UL50-UL53 interaction, biochemical, HTRF; HCMV UL50-UL53 nuclear egress complex (human cytomegalovirus); normalized percent inhibition; inhibition, % (no concentration beside the values); 190,000 compounds, 0.15% hits;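 active = both replicates at 50% or more, plus weaker picks with an unusually low signal ratio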;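 also: stock transfer was 100 nL into about 20 µL; 0% = negative control wells and 100% = wells with untagged competitor protein; inactives centre near -12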
Sa growth 42C: S. aureus growth inhibition at 42 and 30 °C, primary screen, LtaS inhibitor project, RN4220, two temperatures | OD600, 20 h, 42 °C; stronger effect = lower value | relative growth, % (test concentration not listed) | 170,000 compounds, 0.53% hits;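 active = growth at 42 °C up to 50% and 20 or more points under that at 30 °C, or under 10% at both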;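 also: 300 nL library stock went into each well; scaled to the means of positive and negative controls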
GIV-Gai inh: inhibitors of GIV peptide binding to Galpha-i3, primary screen, biochemical, fluorescence polarization, FITC-GIV GBA peptide, rat Galphai3 | 90 min; stronger effect = lower value; scaled: aluminum fluoride 0%, vehicle 100% | 210,000 compounds, 0.42% hits | percent of control (FP), % (no concentration beside the values);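 active = replicate mean at 85% of control or lower, very high polarization wells dropped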;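 also: wells of about 15 µL received 100 nL stock; the first replicate is given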
Target sequence (P08753 whole entry, looked up): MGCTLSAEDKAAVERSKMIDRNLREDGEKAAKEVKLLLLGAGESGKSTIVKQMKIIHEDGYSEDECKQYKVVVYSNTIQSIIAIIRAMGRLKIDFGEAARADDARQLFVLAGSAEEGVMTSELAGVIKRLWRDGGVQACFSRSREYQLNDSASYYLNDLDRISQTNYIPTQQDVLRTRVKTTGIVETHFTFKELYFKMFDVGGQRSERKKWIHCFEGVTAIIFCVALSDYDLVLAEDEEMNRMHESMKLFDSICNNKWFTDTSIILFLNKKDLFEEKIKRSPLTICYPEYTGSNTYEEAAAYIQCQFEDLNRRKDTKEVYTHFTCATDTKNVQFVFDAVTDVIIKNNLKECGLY
Sa growth 42C second temp: recorded beside Sa growth 42C, whose call it bears; relative growth, %; measured here: growth at 30 °C;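 optical density after 20 h as mean of two plates; 100% = untreated growth and lower means inhibition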
Starred values were filed as active, the others as inactive; x = no result given; & = joins results of further samples.

The first 6 records, to show the layout:
Below each compound: GIV-Gai inh, Sa growth 42C, Sa growth 42C second temp, HCMV NEC inh
COc1cccc(NC(=O)Cn2c(=O)n(Cc3ccccc3)c(=O)c3c4c(sc32)CN(C(C)=O)CC4)c1
  105, 87, 82, 4
COCCc1nn2c(=O)cc(COC(=O)c3ccc(C(C)(C)C)cc3)nc2s1
  95, 89, 90, x
COc1ccc(CCNC(=O)c2c(O)nc3ccccn3c2=O)cc1
  97, 86, 74, -32
CCOc1ccc(C(=O)NCc2nnnn2-c2ccc(C)c(C)c2)cc1OCC
  97, 86, 85, x
COc1cc(OC)c(N(C)C(=O)Cn2ncc3c(=O)oc4ccccc4c32)cc1Cl
  105, 113, 92, -19
COC(=O)c1ccc(Cn2ccnc2)cc1
  99, 115, 84, -2

All compounds of this part, from the start:
Below each compound: GIV-Gai inh, Sa growth 42C, Sa growth 42C second temp, HCMV NEC inh
COc1cccc(NC(=O)Cn2c(=O)n(Cc3ccccc3)c(=O)c3c4c(sc32)CN(C(C)=O)CC4)c1
  105, 87, 82, 4
COCCc1nn2c(=O)cc(COC(=O)c3ccc(C(C)(C)C)cc3)nc2s1
  95, 89, 90, x
COc1ccc(CCNC(=O)c2c(O)nc3ccccn3c2=O)cc1
  97, 86, 74, -32
CCOc1ccc(C(=O)NCc2nnnn2-c2ccc(C)c(C)c2)cc1OCC
  97, 86, 85, x
COc1cc(OC)c(N(C)C(=O)Cn2ncc3c(=O)oc4ccccc4c32)cc1Cl
  105, 113, 92, -19
COC(=O)c1ccc(Cn2ccnc2)cc1
  99, 115, 84, -2
O=C(CSc1ncnc2nc[nH]c12)c1ccc2ccccc2c1
  x, 96, 72, -42
OC1c2ccccc2-c2ccccc2C1O (stereo not drawn)
  103, 89, 82, -38
Cc1ccc(CNC(=O)c2cc(C3CC3)nc3c2cnn3C(C)C)cc1
  x, 103, 107, 13
Cn1cnn(CN2CCCCC2)c1=S
  x, 110, 93, -37
Cc1cccc(NC(=O)Cn2nnc(C(=O)NCc3ccco3)c2N)c1
  110, 75, 87, -8
Cc1c(S(=O)(=O)Nc2ccc(S(C)(=O)=O)cc2)sc2ccc(Cl)cc12
  106, 79, 76, -17
CC(C)(C)NC[C@H](O)COc1nsnc1N1CCOCC1
  102, 84, 84, -21&-11&-8&-25
CC(C)NC(=O)CCn1c(=O)sc2ccccc21
  108, 80, 89, x
COc1ccc(C)c2sc(N(Cc3cccnc3)C(=O)c3cccs3)nc12
  104, 103, 86, x
CCCN(CCC)C(=O)Cn1c(=O)n(-c2ccc(Cl)cc2)c(=O)c2c3c(sc21)CCCC3
  103, 100, 91, -18
CC1Cc2ccccc2N1C(=O)CCS(=O)(=O)c1cccs1 (stereo not drawn)
  103, 96, 86, 4
CCOc1cccc(C2c3cccn3-c3c(c(C)nn3-c3ccccc3)CN2C(=O)NC)c1 (stereo not drawn)
  100, x, x, -18
COc1cc(OC)cc(-c2cc3cnc(N)nc3nc2NC(=O)NC(C)(C)C)c1
  98, x, x, -18
COC(=O)C1C(=O)N2CCCSC2=C(C#N)C1c1cccs1 (stereo not drawn)
  x, 86, 89, -17
CCOc1ccc(-c2cc(C(=O)Nc3nccs3)no2)cc1
  104, x, x, 18
CCC(=O)Nc1ccccc1-c1nnc(SC(C)C(=O)Nc2c(C)cc(C)cc2C)[nH]c1=O (stereo not drawn)
  98, x, x, -11
Cc1ccc(CNC(=O)CN2C(=O)COc3ccc(S(=O)(=O)Nc4ccccc4)cc32)cc1
  105, 98, 93, x
O=c1[nH]n(CC2COC3(CCCCC3)O2)c(=O)c2ccccc12 (stereo not drawn)
  106, 89, 93, -28
CC(C)OC(=O)C(C)Oc1ccc2c(-c3ccccc3)cc(=O)oc2c1 (stereo not drawn)
  103, 101, 73, x
COc1ccc(-c2[nH]c(-c3ccccc3)nc2SCC(=O)Nc2ccc3c(c2)OCCO3)cc1
  105, 111, 74, -6
CC1(C)Cc2cccc(C(=O)NCc3cccnc3)c2O1
  97, 96, 88, 4
O=C(NCc1ccccc1)c1ccccc1OCc1nnc(-c2ccc(Cl)cc2)o1
  x, 101, 93, -1
CCCCNc1nc2c(S(=O)(=O)c3ccccc3)nnn2c2ccsc12
  100&104, 99, 93, 9&7
CC1CC(C)CN(S(=O)(=O)c2ccc(C(=O)Nc3nc4ccc(Cl)cc4s3)cc2)C1 (stereo not drawn)
  106, x, x, -6
Cc1nc2c3cccnc3nn2c(C)c1CCC(=O)NCc1ccccc1
  108, 111, 103, 4
Cc1nnsc1C(=O)Oc1ccc(Cl)cc1
  102, 98, 88, -37
CC1(C)CC(=O)c2c(S(C)(=O)=O)sc(C(=O)OCc3ccccc3)c2C1
  105, 109, 67, -12
CCOC(=O)C1CCN(C(=O)Cc2ccc(NC(=O)N3CCCCc4ccccc43)cc2)CC1
  107, x, x, -29
COc1ccc(C2CC(c3ccccc3)=NN2C(=O)CCCC(=O)O)cc1OC (stereo not drawn)
  101, x, x, -41
CCC1CSC(Nc2cccc(Cl)c2)=N1 (stereo not drawn)
  x, 88, 92, 7
CCN(CC)C(=O)c1sc2c(c1C)c(=O)n(Cc1ccccc1)c(=O)n2CC(=O)NCC1CCCO1 (stereo not drawn)
  102, 93, 80, 3
O=C(Nc1ccc(F)cc1)C1CCCN(c2ncccn2)C1 (stereo not drawn)
  114, 94, 90, -3
CNC(=O)Nc1cccc2cccnc12
  105, 99, 87, -14
Cc1nn(C)c(C)c1S(=O)(=O)N(CC(=O)N1CCCC1)c1ccc(C(C)C)cc1
  97, 105, 100, x
Cn1ccnc1S/C(=C/C=C(C#N)C#N)c1ccc(Cl)cc1
  120, 48, 0, -6
Cc1ccc(NS(=O)(=O)N2CCCCC2)cc1
  100, 113, 107, -10
CCOC(=O)C1C(=O)NCC2CCCC21 (stereo not drawn)
  108, 104, 89, -3
CC(=O)Nc1nc2c(s1)C(=O)NCCC2
  101, x, x, -3&-18
CCn1c(SCc2cc(=O)[nH]c3ccccc23)nnc1C1CC1
  96, 96, 86, -2
COCCNc1oc(-c2ccc(OC)cc2)nc1C#N
  100, 89, 93, -30
CC(C)Cc1nnc(N)s1
  x, 119, 89, -20
Cc1ccc(NC(=O)Nc2ccccc2Sc2ccc3nncn3n2)cc1Cl
  102, x, x, -2
Cc1cccc(C2N3CC4(C)CN2CC(C)(C3)C4)c1 (stereo not drawn)
  108, 91, 90, -39
Cc1cccc(C)c1NC1=NC(C)(CO)CS1 (stereo not drawn)
  103, 109, 83, -27
CCn1nc(C)c(-c2cc(C(=O)O)[nH]n2)c1C
  105, x, x, -13
Cc1nn(C)c(C)c1S(=O)(=O)NCc1ccc2c(c1)CCO2
  97, 98, 98, 2
Cc1ccc(-c2cc3nc(-c4ccccc4)cc(C(F)(F)F)n3n2)cc1
  102, 98, 90, -8
Cc1csc2nc(CSc3nc(-c4ccccc4Cl)nc4cc(=O)[nH]n34)cc(=O)n12
  96, x, x, -8
Cc1ccc(-n2c(-c3ccc(Br)cc3)nc3c(cnn3-c3ccccc3)c2=O)cc1
  100, 94, 87, -17
Cn1cc2nc(SCc3cc(F)cc(F)c3)n(Cc3ccc(F)cc3)c(=O)c2n1
  106, x, x, -14
COC(=O)c1ccccc1NC(=O)Cc1ccc(Cl)cc1
  x, 71, 95, 2
CCOc1ccccc1CNC(=O)C1CCCN(c2ncnc3onc(-c4ccc(F)cc4)c23)C1 (stereo not drawn)
  106&95, 103, 91, -2
CCOC(=O)C1CCCc2c1[nH]c1c(C(=O)NCc3ccc(Cl)cc3)cccc21 (stereo not drawn)
  115, x, x, 0
COc1ccc(OCC2c3cc(OC)c(OC)cc3CCN2C(=O)COc2ccc(Cl)cc2Cl)cc1 (stereo not drawn)
  104, 96, 88, x

Next part
Below each compound: GIV-Gai inh, Sa growth 42C, Sa growth 42C second temp, HCMV NEC inh
C=CCN1C(=O)/C(=C/c2ccc(OC)c(Oc3ccc([N+](=O)[O-])cc3[N+](=O)[O-])c2)SC1=S
  102, x, x, -36
COc1ccc(S(=O)(=O)Nc2cncc(C(=O)N3CCN(c4ccc(F)cc4)CC3)c2)cc1
  103, 117, 75, x
Cc1c(NC(=O)c2ccccc2F)cccc1-c1nc2cccnc2s1
  102, 103, 91, -8
O=C1CC(Sc2ccc(Cl)cc2)C(=O)N1Cc1cccnc1 (stereo not drawn)
  105, 33, 34, -26
CCOC(=O)c1c(C)[nH]c(C)c1S(=O)(=O)N(Cc1ccccc1Cl)C1CCN(C)CC1
  104, x, x, -23
CCC(C)NC(=O)/C=C/c1ccc(C)cc1 (stereo not drawn)
  100, 102, 95, -18
Cc1ccc(Cn2ccc(NC(=O)c3c(-c4ccccc4Cl)noc3C)n2)cc1
  104, 94, 75, -4
CCOC(=O)c1c(NC(=O)c2cc(=O)c3c(C)cc(C)cc3o2)sc2c1CCC2
  104, 108, 85, -19
O=C(CO)Nc1cccc2nsnc12
  x, 110, 92, -78
Cc1ccnc(NC(=O)c2ccc3c(c2)C(=O)N(Cc2ccco2)C3=O)c1
  108, 114, 98, -52
FC(F)(F)c1ccc(Cl)c(NNC2=NCCCCC2)c1
  x, 120, 101, 4
Cn1c(SCC(=O)N2CCCC(c3nc4ccccc4s3)C2)nc2ccccc21 (stereo not drawn)
  x, 76, 79, -12
Cc1ccc2nc(CNC(=O)c3ccccc3)[nH]c2c1
  102, 96, 81, -18
C=CCNC(=O)CSc1nnc(-c2ccc3nonc3c2)n1C
  104, 100, 102, -37
CCN(CC)C(=O)Cn1c(=O)n(Cc2ccccc2)c(=O)c2c3c(sc21)CCC3
  108, 74, 94, x
CCCNC(=O)c1cc(C)nc2c1c(=O)n(C)c(=O)n2C
  109, x, x, -12
CCCS(=O)(=O)NCc1cn2c(C)csc2n1
  102, 103, 87, x
Cn1c(CN2CC(c3ccccc3)CC2=O)n[nH]c1=S (stereo not drawn)
  101, 110, 95, -7
COc1ccccc1NC(=O)CCC1CC(=O)OC1c1ccccc1 (stereo not drawn)
  106, 93, 76, 7
CCCn1c(=O)c2ccccc2n2c(=O)n(CC(=O)c3ccc(C)cc3)nc12
  103, x, x, -30
COCCCN1C(=O)c2[nH]nc(-c3cc(C)ccc3O)c2C1c1ccc(C)cc1 (stereo not drawn)
  109, x, x, -10
Cc1noc2ncnc(NC3CCCCC3C)c12 (stereo not drawn)
  100, x, x, -2
COc1ccc(CNCC2CCC(C(=O)O)CC2)cc1 (stereo not drawn)
  96, 89, 98, -10
CC(=O)c1ccc(NC(=O)C2=CC(c3ccc4c(c3)OCO4)=NS(=O)(=O)N2C)cc1
  107, 86, 90, -30
CCN(CC)c1ccc(NC(=O)c2cnn3c(C(F)F)cc(-c4ccccc4)nc23)cc1
  96, 98, 88, -21
CN(CCc1ccccn1)c1ncnc2[nH]ncc12
  x, 99, 82, -22
CC(CS(=O)(=O)c1ccc2c(c1)NC(=O)C(C)S2)C(=O)NCc1ccccc1 (stereo not drawn)
  104, 95, 74, -32
Cc1ccc(S(=O)(=O)NCC(c2ccc(N(C)C)cc2)N(C)C)cc1 (stereo not drawn)
  107, 105, 102, 15
C=CCN(CC=C)S(=O)(=O)c1ccc(C(=O)Nc2nc3c(s2)CCC3)cc1
  104, x, x, -10
COc1ccc(Br)cc1CNC(=O)CN1CCSc2ccccc21
  104, 109, 93, x

Only GIV-Gai inh, HCMV NEC inh and Sa growth 42C second temp (four entries from above):
SMILES | GIV-Gai inh | HCMV NEC inh | Sa growth 42C second temp
CN(CCc1ccccn1)c1ncnc2[nH]ncc12 | x | -22 | 82
CC(CS(=O)(=O)c1ccc2c(c1)NC(=O)C(C)S2)C(=O)NCc1ccccc1 (stereo not drawn) | 104 | -32 | 74
Cc1ccc(S(=O)(=O)NCC(c2ccc(N(C)C)cc2)N(C)C)cc1 (stereo not drawn) | 107 | 15 | 102
C=CCN(CC=C)S(=O)(=O)c1ccc(C(=O)Nc2nc3c(s2)CCC3)cc1 | 104 | -10 | x

3 of the entries above in order of their number in Sa growth 42C second temp, ascending.
canonical_smiles	GIV-Gai inh	Sa growth 42C second temp
CCCN(CCC)C(=O)Cn1c(=O)n(-c2ccc(Cl)cc2)c(=O)c2c3c(sc21)CCCC3	103	91
CCN(CC)C(=O)Cn1c(=O)n(Cc2ccccc2)c(=O)c2c3c(sc21)CCC3	108	94
Cc1ccnc(NC(=O)c2ccc3c(c2)C(=O)N(Cc2ccco2)C3=O)c1	108	98

Next section.
Below each compound: GIV-Gai inh, Sa growth 42C, Sa growth 42C second temp, HCMV NEC inh
COc1ccc(NC(=O)C2(C)c3ccccc3-c3ccccc32)cc1
  x, 110, 92, -13
COc1cccc2sc(=NC(=O)COc3ccc(Cl)cc3Cl)n(C)c12
  99, 190, 2, x
Cc1ccc(C(CC(=O)NCc2ccco2)N2Cc3ccccc3C2=O)cc1 (stereo not drawn)
  103, 109, 79, -20
CN(CCc1ccccn1)Cc1ccc2c(c1)OCO2
  102, 91, 94, 9

From PubChem BioAssay
